# HCMV NEC inh = disrupts HCMV UL50-UL53 complex binding. HTRF UL50-UL53 interaction, normalized percent inhibition. AID 1918969. inhibition, % (concentration not given with the values). 190,000 tested, 0.15% active;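 active = both replicates at 50% or more, plus weaker picks with an unusually low signal ratio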;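 note: stock transfer was 100 nL into about 20 µL; 0% = negative control wells and 100% = wells with untagged competitor protein; inactives centre near -12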
# GIV Gai3 FP = blocks GIV peptide binding to rat Galpha-i3 | P08753 | Galpha-i3/FITC-GIV peptide fluorescence polarization, 90 min; hits give low values; scaled: aluminum fluoride 0%, vehicle 100% | percent of control (FP), % (concentration not given with the values) | 210,000 tested, 0.42% active;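 active = replicate mean at 85% of control or lower, very high polarization wells dropped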;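 note: wells of about 15 µL received 100 nL stock; the first replicate is given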
# Target sequence (P08753 whole entry, looked up): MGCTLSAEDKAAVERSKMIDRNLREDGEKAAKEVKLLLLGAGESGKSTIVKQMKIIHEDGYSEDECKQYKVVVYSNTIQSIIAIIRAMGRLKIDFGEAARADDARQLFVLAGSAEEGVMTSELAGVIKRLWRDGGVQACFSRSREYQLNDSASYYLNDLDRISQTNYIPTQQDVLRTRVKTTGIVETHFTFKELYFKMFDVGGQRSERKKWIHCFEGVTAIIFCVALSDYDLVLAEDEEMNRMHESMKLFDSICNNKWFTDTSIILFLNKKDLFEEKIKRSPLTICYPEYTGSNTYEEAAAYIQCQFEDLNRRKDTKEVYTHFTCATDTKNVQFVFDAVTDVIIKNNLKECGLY
# Sa growth 42C = blocks Staphylococcus aureus growth | S. aureus RN4220 growth, OD600, 20 h, 42 °C; hits give low values | relative growth, % (no concentration beside the values) | 170,000 tested, 0.53% active | AID 720641;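 active = growth at 42 °C up to 50% and 20 or more points under that at 30 °C, or under 10% at both; inconclusive = no clear call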;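 note: 300 nL library stock went into each well; scaled to the means of positive and negative controls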
# Sa growth 42C second temp = recorded beside Sa growth 42C, whose call it bears; relative growth, %; measured here: growth at 30 °C;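 optical density after 20 h as mean of two plates; 100% = untreated growth and lower means inhibition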
# Starred values were filed as active, the others as inactive; u = inconclusive; x = no result given; & = joins results of further samples.
1: Cc1c(N2CCC(C(=O)N3CCCC3)CC2)c(=O)n(C)c(=O)n1-c1ccccc1
2: CC1CCCCN1C(=O)CSc1nc2ccccc2nc1Cc1ccc(Cl)cc1 (configuration not stated)
3: CC(=O)NC(Cc1c[nH]c2ccccc12)C(=O)N1CCN(S(=O)(=O)c2ccccc2)CC1 (configuration not stated)
4: CCOC(=O)C1CCC(CNC(=O)NC(c2ccccc2)c2nnc(-c3ccccc3)o2)CC1 (configuration not stated)
5: COCCCNC(=O)C1CCN(c2nn3cc(-c4ccc(F)cc4)nc3s2)CC1
6: Cc1ccc(N(C)C(=O)CN2C(=O)CCc3cc(S(=O)(=O)N4CCOCC4)ccc32)cc1
7: Cc1noc(C)c1CSc1nc2ccccc2c(=O)n1C(C)C
8: COCCNc1oc(-c2ccccc2)nc1S(=O)(=O)c1ccc(Br)cc1

entry no.,1,2,3,4,5,6,7,8
Sa growth 42C second temp,x,92,86,101,83,90,62,84
GIV Gai3 FP,106,99,x,118,108,103,x,104
HCMV NEC inh,-32,x,-10,-7,x,x,-9,x
Sa growth 42C,x,119,97,106,115,86,65,113

9: CC(OC(=O)c1ccccc1)C(=O)NCc1ccco1 (configuration not stated)
10: O=C(NCC(c1ccco1)S(=O)(=O)c1ccc(Cl)cc1)c1ccc(C(F)(F)F)cc1 (configuration not stated)
11: c1ccc(-c2onc3ccc(-n4cccc4C4OCCO4)cc23)cc1
12: O=C(c1ccc(Cl)cc1)C(O)c1c[nH]c2ccccc12 (configuration not stated)
13: COc1ccc(CC(=O)NCc2ccc3c(c2)CCN3C(C)=O)cc1OC
14: CCOc1nc2cccnc2n(CC(=O)Nc2ccc(CC)cc2)c1=O
15: COc1ccc(N2CCN(c3c4c(nc5nncn35)CCC4)CC2)cc1
16: CC1CCCCN1CCNc1ccc2nnc(-c3ccc(F)cc3)n2n1 (configuration not stated)

entry no.,9,10,11,12,13,14,15,16
Sa growth 42C second temp,92,91,86,76,87,x,89,85
GIV Gai3 FP,x,94,102,101,104,99,99,105
HCMV NEC inh,-25,x,x,-12,x,-20,-31,x
Sa growth 42C,103,87,74,102,127,x,94,93

# In a second layout: results already given.
# Fields: Sa growth 42C second temp, GIV Gai3 FP, HCMV NEC inh, Sa growth 42C
9	CC(OC(=O)c1ccccc1)C(=O)NCc1ccco1 (configuration not stated)
  92, x, -25, 103
10	O=C(NCC(c1ccco1)S(=O)(=O)c1ccc(Cl)cc1)c1ccc(C(F)(F)F)cc1 (configuration not stated)
  91, 94, x, 87
11	c1ccc(-c2onc3ccc(-n4cccc4C4OCCO4)cc23)cc1
  86, 102, x, 74
12	O=C(c1ccc(Cl)cc1)C(O)c1c[nH]c2ccccc12 (configuration not stated)
  76, 101, -12, 102
13	COc1ccc(CC(=O)NCc2ccc3c(c2)CCN3C(C)=O)cc1OC
  87, 104, x, 127

# Carrying on:
17: COc1cc(/C=c2/sc3nc4ccccc4n3c2=O)cc(Br)c1OC
18: Cc1onc(-c2ccccc2)c1CNC(=O)C1CC1
19: CC(C)CC(C(=O)O)n1c(O)c(C2=c3cc(Br)ccc3=NC2=O)sc1=S (configuration not stated)
20: COc1ccc(Nc2nc(NCCCC(C)C)nc(OC)n2)c(OC)c1
21: CSC1=NCCN1C(=O)C12CC3CC(CC(C3)C1)C2
22: CCc1nn(CC(=O)O)c(=O)c2cc3ccccc3n12
23: CCOC(=O)c1nn(-c2ccc(OC)cc2)c(=O)c2c(N)scc12
24: Cc1ccc(CNC(=O)c2ccc(CSCc3ccc(Cl)cc3)o2)cc1

entry no.,17,18,19,20,21,22,23,24
Sa growth 42C second temp,x,95,x,102,83,92,58,25
GIV Gai3 FP,100,106,108,104,99,115,119,107
HCMV NEC inh,-5,-3,0,-8,-32,-1,x,x
Sa growth 42C,x,102,x,114,95,101,68,63

# 3 compounds from above, ordered by count of non-hydrogen atoms, highest first.
5: COCCCNC(=O)C1CCN(c2nn3cc(-c4ccc(F)cc4)nc3s2)CC1
19: CC(C)CC(C(=O)O)n1c(O)c(C2=c3cc(Br)ccc3=NC2=O)sc1=S (configuration not stated)
7: Cc1noc(C)c1CSc1nc2ccccc2c(=O)n1C(C)C

entry no.,5,19,7
Sa growth 42C second temp,83,x,62
GIV Gai3 FP,108,108,x
HCMV NEC inh,x,0,-9
Sa growth 42C,115,x,65

# Next entries.
25: c1ccc2c(c1)CCN(Cc1ccsc1)C2
26: CC(C)Cn1c(SCn2nnc3ccccc3c2=O)nnc1-c1ccco1
27: CCOC(=O)c1sc2ccccc2c1S(=O)(=O)N1CCN(c2cccc(C)c2C)CC1
28: COC(=O)N/N=C(\C)c1ccc2c(c1)Nc1ccccc1S2
29: CN(C)C(=O)C[n+]1cccc(/C=N/O)c1
30: CCC1CCCCN1C(=O)CCS(=O)(=O)c1cc2c(cc1C)NC(=O)CO2 (configuration not stated)
31: Cc1ccc(-c2noc(-c3cccnc3NCc3ccco3)n2)cc1
32: CC(C)(C)C(=O)Nc1ccc2nn(-c3ccccc3)nc2c1

entry no.,25,26,27,28,29,30,31,32
Sa growth 42C second temp,99,89,82,67,99,95,83,100
GIV Gai3 FP,109,x,98,x,95,101,102,107
HCMV NEC inh,4,-43,x,-77,x,x,-23,-56
Sa growth 42C,104,101,85,80,94,106,90,115

33: CCCCNC(=O)CSc1nc2n[nH]c(C)c2c(=N)n1-c1cccc(Cl)c1C
34: COc1ccc(Cn2nnnc2CN(Cc2cccs2)Cc2cc3ccc(OC)cc3[nH]c2=O)cc1
35: CCOc1cc(/C=C2/C(=O)NC(=O)N(c3ccc(OC)cc3)C2=O)ccc1OCCBr
36: O=C(COC(=O)C1CCC1)c1ccc(F)cc1
37: COC(=O)C1=C(C)OC(N)=C(C#N)C1c1ccccc1OC(=O)c1ccc(Cl)cc1 (configuration not stated)
38: CCOc1cc(CNC(=O)CSc2n[nH]c(-c3ccccc3)n2)cc(OCC)c1OCC
39: COc1ccc(N2C(=O)CCS2(=O)=O)cc1S(=O)(=O)Nc1ccc(Oc2ccccc2)cc1
40: c1ccc(C2SCCN2c2ccccc2)cc1 (configuration not stated)

entry no.,33,34,35,36,37,38,39,40
Sa growth 42C second temp,100,104,x,95,x,92,x,94
GIV Gai3 FP,100,103,93,x,109,109,103,98
HCMV NEC inh,x,9,-17,1,-16,x,4,-3
Sa growth 42C,129,83,x,83,x,97,x,119

41: COc1ccccc1Nc1nc2ccccc2s1
42: COc1ccc(CC(=O)N2CCN(c3ccccc3OC)CC2)cc1
43: Cn1ncc(S(=O)(=O)Cc2ccccc2)c(Cl)c1=O
44: CCOc1ccc(N(CC(=O)NCCc2ccc(OC)c(OC)c2)S(=O)(=O)c2ccc(SC)cc2)cc1
45: CN(CC(=O)NCCC1=CCCCC1)S(=O)(=O)c1ccc2c(c1)CCCC(=O)N2
46: CCC(=O)N1CCc2cc(Br)cc(S(=O)(=O)N3CCN(c4ccccc4OC)CC3)c21
47: CC1CCCC(C)N1C(=O)COC(=O)c1ccc(S(=O)(=O)N2CCCC2)cc1 (configuration not stated)
48: CCCCNC(=O)CCn1c(=O)c2cccn2c2cccnc21

entry no.,41,42,43,44,45,46,47,48
Sa growth 42C second temp,x,102,86,x,x,87,97,97
GIV Gai3 FP,x,x,102,101,105,96,x,105
HCMV NEC inh,-13,5,-57,-12,-7,-7,-23,x
Sa growth 42C,u,77,92,x,x,97,94,95

49: Cc1cccc(NC(=O)CC2SC(=O)NC2=O)c1 (configuration not stated)
50: CCc1c(C(=O)OCc2ccccc2)[nH]c(C)c1C
51: C=CCN1CCN(C(=O)NCc2ccc(C)cc2)c2cccnc21
52: O=C(Nc1cc(Br)ccc1O)c1noc2c1CCc1ccccc1-2
53: CC(=O)Oc1c(-c2ccco2)oc2ccccc2c1=O
54: CCc1nn(-c2cc(Cl)ccc2OC)c2c1C(=O)CCC2
55: CCCn1c2ccccc2c2cnn(CC(=O)Nc3cc(OC)c(OC)c(OC)c3)c(=O)c21
56: O=C(c1cn(-c2ccccc2)nc1-c1cccs1)N1CCN(c2ccccc2)CC1

entry no.,49,50,51,52,53,54,55,56
Sa growth 42C second temp,x,74,x,x,72,81,90,90
GIV Gai3 FP,105,100,106,100,107,96,112,x
HCMV NEC inh,-27,-7,6,-20,-67,-15,x,-38
Sa growth 42C,x,99,x,x,130,97,93,109

57: O=C(CN1C(=O)CCn2nc(-c3ccc(Cl)cc3)cc21)NCc1ccc2c(c1)OCO2
58: CCN1C(=O)c2ccccc2Sc2ccc(C(=O)NC(C)C)cc21
59: O=C(CSc1nnc(-c2ccccc2Br)o1)NC(=O)NC1CCCC1
60: C=CCN1CC(c2nc3ccccc3n2CC(O)COc2ccccc2)CC1=O (configuration not stated)
61: CN(C)C=Nc1ncc2c([nH]c3ccccc32)c1C#N
62: COc1cc(C=C2C(=O)NC(=O)NC2=O)cc(Br)c1OCc1ccccc1Cl
63: CCOC(=O)CC1=CC(=O)N(CC(=O)N(C)c2ccccc2)c2ccccc2N1
64: COc1ccc(Cn2ccnc2SCC(=O)Nc2ccc(C)cc2C)cc1

entry no.,57,58,59,60,61,62,63,64
Sa growth 42C second temp,x,82,64,x,82,x,x,87
GIV Gai3 FP,108,102,x,107,108,105,110,102
HCMV NEC inh,-9,4,-20,-8,x,7,3,x
Sa growth 42C,x,105,62,x,81,x,x,119

65: COCCN1C(=O)c2ccccc2C(C(=O)NCC2CCCO2)C1c1cccs1 (configuration not stated)
66: COc1ccc(Cl)cc1C(=O)NCc1ccco1
67: C=CCNC(=O)C1CCN(c2ccc(Cl)cc2)C1=O (configuration not stated)
68: COc1ccc(NS(=O)(=O)c2cccc(-c3nnc4n3CCCCC4)c2)cc1
69: Cc1c(C)c2ccc(OC(=O)c3cccs3)cc2oc1=O
70: Cc1ccc(C)c(N2C(=O)c3ccc(C(=O)OCC#N)cc3C2=O)c1
71: CCOc1cccc(OCC)c2c(C)[n+](C)c(C)c1-2
72: Cc1occc1-c1nnc2sc(-c3ccc4ccccc4n3)nn12

entry no.,65,66,67,68,69,70,71,72
Sa growth 42C second temp,99,77,x,92,89,91,68,x
GIV Gai3 FP,110,102,103,x,101,x,96,107
HCMV NEC inh,x,-8,-18,-34,-8,-102,x,-16
Sa growth 42C,103,103,x,105,104,84,123,x

73: Cc1cccc(NC(=O)c2cc3c(=O)n4cccc(C)c4nc3s2)c1C
74: COC(=O)c1sccc1Oc1ccc(C(F)(F)F)cc1N
75: O=c1[nH]c(C2CC2)nc2c1CSCC2
76: CCC(C(=O)N1CCCCC1)N1C(=O)CCCc2ccccc21 (configuration not stated)
77: CN(Cc1cccs1)C(=O)CN1C(=O)C2CC=CCC2C1=O (configuration not stated)
78: CC(C)(C)OC(=O)N1CCN(C(=O)OC(C)(C)C)CC1
79: O=C1CCCC2=C1C(c1cccc(Cl)c1)n1c(nc3ccccc31)N2 (configuration not stated)
80: CCc1nn2c(=O)cc(COc3ccc(/C=C4\C(=O)NN(c5ccccc5)C4=O)cc3)nc2s1

entry no.,73,74,75,76,77,78,79,80
Sa growth 42C second temp,89,97,78,x,90,90,88,78
GIV Gai3 FP,96,101,102,109,x,103,100,105
HCMV NEC inh,-19,-17,7,-12,1,-1,x,-16
Sa growth 42C,91,81,106,x,104,88,110,96

81: O=C1COc2ccc(S(=O)(=O)N3CCCC(C(=O)Nc4ccc5c(c4)OCO5)C3)cc2N1 (configuration not stated)
82: CCOC(=O)c1cc(-c2ccccc2)on1
83: C=CCn1c(C)cc(C(=O)CN2C(=O)NC(CCSC)C2=O)c1C (configuration not stated)
84: Cc1cc(-n2c(C)cc(C(=O)CSCc3ccccc3F)c2C)no1
85: Cc1ccc(-c2nccc(N3CCC(C(=O)Nc4ccc5c(c4)OCO5)CC3)n2)cc1
86: O=C(Nc1ccc2[nH]c(=O)[nH]c2c1)c1ccc2c(=O)n3c(nc2c1)CCCCC3
87: COc1ccccc1NC(=O)[C@H](Cc1ccccc1)N1Cc2ccccc2C1=O
88: CC(=O)Nc1ccc(Oc2cc(C#N)c(C#N)cc2N2CCOCC2)cc1

entry no.,81,82,83,84,85,86,87,88
Sa growth 42C second temp,x,x,95,101,x,84,88,80
GIV Gai3 FP,104,99,x,x,102,x,106,x
HCMV NEC inh,-12,-13,-26,6,-14,2,x,-10
Sa growth 42C,x,x,94,90,x,81,95,95

89: O=c1ccnc(SCc2ccc(Cl)cc2)[nH]1
90: CC(=O)OC1=CC(=O)CC(c2ccc(Cl)cc2)C1 (configuration not stated)
91: COc1ccc(C/C(C)=N/NC(N)=O)cc1OC
92: COCC(C)NCc1ccc2ccccc2c1 (configuration not stated)
93: CCOC(=O)C1=C(N)OC2=C(C(=O)CCC2)C1c1cccnc1 (configuration not stated)
94: Cc1noc(C)c1CSc1cc(C)c2ccccc2n1
95: O=C(O)CCCCn1c(SCC(=O)Nc2ccccc2C(F)(F)F)nc2ccsc2c1=O
96: CC(C)CCOc1ccc(Oc2nc(N(C)C)nc(N(C)C)n2)nn1
97: CCOC(=O)c1nnn(-c2nonc2N)c1-c1ccccc1
98: CCc1nc2ccccc2c(=O)n1Cc1noc(CN2C(=O)COc3ccccc32)n1

entry no.,89,90,91,92,93,94,95,96,97,98
Sa growth 42C second temp,85&97,88,86,113,92,95,86,95,106,x
GIV Gai3 FP,100&101,102,104,101,104,x,94,102,102,105
HCMV NEC inh,-22&-9,-8,-26,-13,11,-32,x,-2,-25,-18
Sa growth 42C,102&108,98,86,99,59,96,91,80,95,x
